MgrA DNA FP: alters Staphylococcus aureus MgrA binding to DNA; fluorescence polarization; inhibition, %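 (about 10 µg/mL by stock and volumes)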; hit rate 0.13% among 84,000; AID 602314;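 active = above 50% in either of two replicates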;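 also: 0% = protein plus DNA without compound and 100% = DNA alone without protein; higher means less MgrA bound to DNA so lower polarization; one replicate is shown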
S aureus helic: S. aureus DNA helicase inhibition; purified S. aureus helicase, fluorescence unwinding assay; about half of the hits fall short of the stated cut; inhibition, %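 (tested at about 80 µM)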; hit rate 0.05% among 120,000; AID 485395;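 active = both duplicates at 50% or more, or one of them with a favoured structure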;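 also: 0% = mean of negative control wells and 100% = mean of positive control wells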
The depositor's hits bear a star; x = not tested or not shown; & = joins results of further samples. Not all compounds are listed. The share of hits here may be higher or lower than overall.

Results follow in this order: S aureus helic	MgrA DNA FP
- NC(=O)c1cc2n(n1)C(C(F)(F)F)CC(c1ccc(Cl)cc1)N2 (stereo not drawn)
  11	-1.3
- O=C(O)c1ccc(-c2nc3ccccc3[nH]2)cc1
  -1	-1.1
- N#Cc1cccn1-c1nccs1
  x	-3.0
- CCCn1c(=O)/c(=C\c2ccco2)s/c1=C(/C#N)c1nc2ccccc2s1
  -214	x
- CC(=O)C1C(=O)c2cccc([N+](=O)[O-])c2C1=O (stereo not drawn)
  x	2.4
- Cc1ccc(N2C(=O)CC(N3CCC(NS(=O)(=O)c4ccccc4)CC3)C2=O)cc1 (stereo not drawn)
  -24	1.1
- O=c1oc2c(CN3CCCC3)c(O)ccc2c2c1CCCC2
  7	x
- O=C(Nc1ccncc1)c1cc(-c2ccccc2)oc1C(F)(F)F
  x	-2.8
- CCOc1ccccc1N1CCN(CC(=O)C(C#N)c2nc(C)cs2)CC1 (stereo not drawn)
  -14	x
- COCCN(C(=S)Nc1cc(F)cc(F)c1)C1CCN(C(C)=O)CC1
  -3	-0.3
- O=C1OC(c2ccc(Cl)c([N+](=O)[O-])c2)=N/C1=C\c1cc(Br)ccc1F
  x	0.8
- Cc1cc(C)n2c(SCc3ccccc3)nnc2n1
  5	-2.0
- CCCOc1ccc(C(=O)Nc2ccc(NC(=O)c3ccco3)cc2)cc1
  9	1.2
- CC1CCCC(NC(=O)CCn2cnc3onc(-c4ccc(F)cc4)c3c2=O)C1C (stereo not drawn)
  30	x
- COc1cc(CC(=O)Nc2cc(Cl)ccc2Sc2nncn2C)cc(OC)c1OC
  -2	x
- CCc1nnc2n1NC(c1ccccc1)C(C(=O)Nc1ccccc1)S2 (stereo not drawn)
  -29	x
- O=C(Cn1c(=O)n(Cc2ccco2)c(=O)c2oc3ccccc3c21)Nc1cccc(Cl)c1
  30	x
- NC(=O)c1c(NC(=O)CCN2C(=O)c3ccccc3C2=O)sc2c1CCC2
  x	2.8
- O=C1CCCCC1Sc1nnc(-c2ccc3c(c2)OCO3)n1-c1ccccc1 (stereo not drawn)
  -16	x
- O=C(CSc1c2c(nc3ccccc13)CCC2)Nc1cccc(Cl)c1
  17	-2.0
- O=C(C1=C(Nc2ccc(O)cc2)CCCC1)C(F)(F)F
  6	2.0
- CCOC(=O)N1CCN(C(=O)CSc2ccccc2)CC1
  5	x
- CCCCNS(=O)(=O)c1ccc2c(c1)nc(CCC)n2CCCC
  -9	x
- Cc1cn(CCC(=O)NCc2ccc3c(c2)OCO3)c2ccccc12
  x	-1.6
- OC(COc1ccccc1Br)CN1CCNCC1 (stereo not drawn)
  12	-7.2
- CC(SCc1ccccc1)C(=O)NC1CCCC1 (stereo not drawn)
  12	0.1
- O=C(O)C1CCN(C(=O)NC2CCCCC2)CC1
  14	-0.6
- CS(=O)(=NC=C(C#N)C#N)c1ccc(Cl)cc1 (stereo not drawn)
  -7	x
- CCOC(=O)c1c[nH]c2ccc(C(F)(F)F)cc2c1=O
  x	0.9&-1.1
- COc1ccccc1C1CCN(S(=O)(=O)c2cc(C(F)(F)F)cc(C(F)(F)F)c2)CC1
  x	-2.1
- CC(CS(=O)(=O)c1ccc(Cl)cc1)C(=O)O (stereo not drawn)
  x	2.5
- COC(=O)C1CCN(CC(O)COCc2ccc(OC)c(OC)c2)CC1 (stereo not drawn)
  1	x
- Cn1nc(C(F)(F)F)c(-c2ccccc2)c1NS(C)(=O)=O
  x	-1.1
- C#CCN1CCS(=O)(=O)CC1
  15	x
- CCN(CC)c1ccc(C(=O)OCC(=O)c2ccccc2)cc1
  -23&2	x
- O=c1n(-c2cccc(Cl)c2)c(=O)n2n1CCC2
  12	-2.5
- CSc1nc(C)cc(SCCOC(=O)Nc2ccccc2)n1
  11	x
- COc1cc2ncnc(NC3CCCCC3)c2cc1OC
  x	1.0
- O=C(CSc1nnc(-c2ccncc2)o1)N1CCCC1
  1	-3.1
- C/C(Cl)=C/Cn1c(SCc2cccc(Br)c2)nc2c1c(=O)[nH]c(=O)n2C
  x	3.0
- O=C1CCC(=O)N1CCSSCCN1C(=O)CCC1=O
  -7	x
- CCNc1nc(-c2cc(C)n(-c3ccc4c(c3)OCCO4)c2C)cs1
  10	x
- CSc1sc(Br)c2c1C(=O)CC(C)(C)C2
  x	-1.6
- O=C(COc1ccc(-c2nc3ccccc3s2)cc1)N1CCOCC1
  -3	x
- N#Cc1c(SCc2ccc(Cl)cc2)nsc1Nc1ccc(Cl)cc1
  x	1.6
- NC(=O)COc1ccc(C2c3c(oc4ccccc4c3=O)C(=O)N2CCCO)cc1 (stereo not drawn)
  -1	0.2
- Cc1ccc(S(=O)(=O)N2CCN(Cn3nc(C)sc3=S)CC2)c(C)c1
  -9	x
- Clc1ccccc1N=C/C=C1\NN=NC1c1ccc(Br)cc1 (stereo not drawn)
  x	-1.6
- O=C(O)c1ccccc1C(=O)N1CCCN(c2ncccc2C(F)(F)F)CC1
  x	-0.2
- CCC1CCCCN1C(=O)/C=C/c1ccccc1Cl (stereo not drawn)
  24	-0.5

(list continues)
Results follow in this order: S aureus helic	MgrA DNA FP
- O=C(O)CNC(=O)Nc1ccccc1
  -5	x
- CC(=O)Nc1c(NC(C)(C)C)c2ccccc2oc1=O
  -9	x
- CCCCc1ccc(NS(=O)(=O)CC(C)C)cc1
  10	-1.4
- CCCc1cc(C(=O)Nc2ccc(CC)cc2)no1
  -1	x
- CN(C)c1cccc(C(=O)Nc2cc(C(F)(F)F)ccc2-n2ccnc2)c1
  8	-0.1
- CCS(=O)(=O)N1CCC(C(=O)OCC(=O)c2ccc(Br)cc2)CC1
  18	x
- Cc1cc(C(=O)CSc2nnc(C(F)(F)F)n2C)c(C)n1Cc1ccco1
  3	x
- Brc1cccc(-c2cn3ccccc3n2)c1
  7	2.8
- CC(C)C(NC(=O)OCc1ccccc1)C(=O)N1CCOCCOCCOCC1 (stereo not drawn)
  7	-1.3
- CCCSc1n[nH]c(-c2ccc(C)cc2)n1
  23	x
- O=C(c1ccccc1)C1CN(CC2CCCO2)CCC1(O)c1ccccc1 (stereo not drawn)
  5	-7.2
- CNCC1C(C)C=C(C)CC1C (stereo not drawn)
  11	3.9
- CCNc1nc2ccccc2n1Cc1ccccc1F
  x	1.5
- CCc1ccc(/C=C2\C(=N)N3N=C(S(C)(=O)=O)SC3=NC2=O)cc1
  16	4.5
- CC(=O)OCN1CCN(COC(C)=O)C1=O
  6	-1.9
- Cc1cc(C)n2nc(CC(=O)NCc3ccccc3Cl)nc2n1
  4	0.2
- COc1cccc2c(OC(C)=O)coc12
  x	2.0
- O=S(=O)(Cc1ccccc1Cl)NC1CCCCC1
  2	-0.5
- CC(=O)Nc1ccc(NC(=O)CC2(CC(=O)O)CCCC2)cc1
  x	-2.0
- Cc1cc(C)n(C(=O)CCNC(=O)c2ccccc2)n1
  -24	x

An excerpt of these results, with each value named.
Cc1ccc(N2C(=O)CC(N3CCC(NS(=O)(=O)c4ccccc4)CC3)C2=O)cc1 (stereo not drawn)
  S aureus helic = -24
  MgrA DNA FP = 1.1
O=c1oc2c(CN3CCCC3)c(O)ccc2c2c1CCCC2
  S aureus helic = 7
  MgrA DNA FP = x
O=C(Nc1ccncc1)c1cc(-c2ccccc2)oc1C(F)(F)F
  S aureus helic = x
  MgrA DNA FP = -2.8
CCOc1ccccc1N1CCN(CC(=O)C(C#N)c2nc(C)cs2)CC1 (stereo not drawn)
  S aureus helic = -14
  MgrA DNA FP = x

As entered above:
In MgrA DNA FP, CNCC1C(C)C=C(C)CC1C (stereo not drawn) is entered as 3.9
In MgrA DNA FP, CCNc1nc2ccccc2n1Cc1ccccc1F is entered as 1.5
In MgrA DNA FP, Cc1cc(C)n2nc(CC(=O)NCc3ccccc3Cl)nc2n1 is entered as 0.2

(more compounds)
Results follow in this order: S aureus helic	MgrA DNA FP
- COc1ccc2nc(C)cc(OCC(=O)Nc3cc(C)cc(C)c3)c2c1
  -17	-4.4
- CCOC(=O)c1cn(CC(=O)Nc2cccc(F)c2)nn1
  7	x
- COC(=O)c1cccnc1Oc1ccccc1
  x	-0.4
- Cc1csc2nc(CSc3nc4ccc(Cl)cc4c(=O)n3CC(C)C)cc(=O)n12
  -2	x
- O=C(CSc1nsc(SCC(=O)c2ccccc2)n1)c1ccccc1
  2	3.8
- c1ccc(CNCc2ccc3c(c2)OCO3)cc1
  25	-1.1
- O=C1c2nccnc2C(=O)N1c1cccc(C(F)(F)F)c1
  3	x
- O=C1/C(=C\c2cccs2)Sc2ccc3ccccc3c21
  x	0.0
- COc1cccc(C(=O)Nc2nc3ccc(F)cc3s2)c1
  9	x
- COc1cccc(CC(=O)Nc2ccc(-c3csc(C)n3)cc2)c1
  x	-0.7
- CS(=O)(=O)Nc1nc2ccccc2[nH]1
  11	x
- CCC(C)C1COC(c2cccn2Cc2c(C)cc(C)cc2C)=N1 (stereo not drawn)
  8	0.9
- Cc1ccc(Cn2c3ccccc3c3nnc(NCC4CCCO4)nc32)cc1 (stereo not drawn)
  -28	x
- Cc1onc(-c2ccccc2)c1C(=O)Oc1ccccc1
  -5	x
- CCOC(=O)c1cnn(-c2ncc(C(=O)OC)c(C(F)(F)F)n2)c1C(F)(F)F
  -11	x
- COc1ccc(C2=NOC(C(=O)N(C)c3ccccc3)C2)cc1 (stereo not drawn)
  8	x
- CC(C)P(=O)(c1cccc(C(=O)O)c1)C(C)C
  -6	-3.5
- CSc1ccc(/C=C2\CC/C(=C\C(C)C)C2=O)cc1
  6	-2.8
- S=c1nc[nH]c2nc[nH]c12
  x	0.3
- CC(C)[C@H](N)c1nnc(SCc2cccc(F)c2)o1
  7	-3.3
- O=C(CSc1nccc(=O)[nH]1)N1CCOCC1
  -9	0.7
- Cc1nn2c(N)c(C#N)cnc2c1C(N)=O
  -2	0.2
- Cc1cccc(OCc2nc(-c3ccc(OCC(N)=O)cc3)no2)c1
  16	x
- O=c1c(Cl)c(NCC2CCCO2)cnn1Cc1ccccc1 (stereo not drawn)
  6	-0.1
- Cc1cc(NCCc2ccccc2)c2nncn2n1
  24	x
- CNC(=O)c1cc(-c2ccc(F)cc2)[nH]c1C
  6	6.5
- O=C(O)c1ccc2nonc2c1
  x	-2.5
- O=C(c1ccc2c(Cl)c3c(nc2c1)CCC3)N1CCC2(CC1)OCCO2
  -14	x
- O=C(CSC(=S)N1CCOCC1)Nc1nc(-c2c[nH]c3ccccc23)cs1
  6	-0.2
- COc1ccccc1CNC(=O)c1sc2ncnc(N3CCN(c4ccccc4F)CC3)c2c1C
  6	-2.4
- COc1cccc2sc(NC(=O)C3COc4ccccc4O3)nc12 (stereo not drawn)
  -5	x
- COC(=O)c1ccc2c(c1)C(=O)/C(=C/c1ccccc1F)O2
  19	x
- O=c1cc(CNC2CCCCC2)c2ccccc2[nH]1
  8	1.3
- CCN1C(=O)/C(=C/c2ccccc2)SC1=Nc1cccc(C(=O)O)c1
  5	0.6
- CSc1nc2ccccc2n1CC(=O)NC1CCCc2ccccc21 (stereo not drawn)
  2	x
- COC(=O)C1=C(C)NC(=O)NC1c1ccc(C(C)C)cc1 (stereo not drawn)
  24	x
- COc1cc(/C=C2\C(=O)NC(=O)N(c3cc(C)cc(C)c3)C2=O)cc([N+](=O)[O-])c1O
  x	27
- CCOC(=O)C1CCN(c2nnc(N3C(=O)c4ccccc4C3=O)s2)CC1
  1	-1.1
- Cc1cc(C)c2cccc(NC(=S)NC(=O)/C=C/c3ccccc3)c2n1
  5	2.9
- COc1ccc(C)cc1NC(=S)NCc1cnn(C)c1
  9	-2.8
- CC(C(=O)N1CCCc2ccccc21)n1nc(-c2cccs2)oc1=O (stereo not drawn)
  19	x
- CCOC(=O)c1c(CN2CCN(c3ccccc3C)CC2)n(C2CCCCC2)c2cc(Br)c(O)cc12
  x	-0.5
- C/C(CCc1oc2c(Br)cc(C)cc2c1-c1ccc(C)o1)=N\NC(N)=S
  21	x
- O=c1[nH]c2ccccc2n1Cc1ccccc1
  -7	1.1
- O=C(CS(=O)(=O)c1ccccc1)Nc1nccs1
  15	0.5
- COc1ccccc1N(CC(=O)N(C)Cc1ccccc1)S(C)(=O)=O
  11	0.9
- COCCn1c(C)cc(C=C2C(=O)N(C)C(=S)N(C)C2=O)c1C
  15	16
- Nn1c(COc2ccc(Cl)cc2)nc2ccccc2c1=O
  -8	1.0
- O=C(COc1ccc(Cl)cc1Cl)Nn1c(O)c(C2=c3ccccc3=NC2=O)sc1=S
  x	1.2
- Cc1cc(NC(=O)/C(C#N)=C/N(C)C)no1
  x	-0.3

(continued)
Results follow in this order: S aureus helic	MgrA DNA FP
- O=C(COC(=O)c1ccccc1SCC(=O)N1CCCC1)Nc1ccc2c(c1)OCO2
  -3	x
- CC(C)C(=O)OCC(=O)Nc1cccc(Cl)c1
  -6	x
- O=C(/C=C/c1cccc(C(F)(F)F)c1)NCc1ccco1
  -5	x
- Cc1c(NC(=O)c2ccc3c(c2)C(=O)N(C)C3=O)cccc1C(=O)O
  9	-0.6
- O=C(NC1CC2CCCC(C1)N2C(=O)Nc1ccccc1)C1CC1 (stereo not drawn)
  7	-1.1
- COC(=O)C1=C(C)NC(C)=C(C(=O)OC)C1C(=O)OCc1nc2cc(C(=O)OC)ccc2c(=O)[nH]1
  -2	x
- Cc1ccc(I)c(C(N)=O)c1
  0	x
- COC(=O)CSc1nc2ccccc2n1CCc1ccccc1
  0	-2.8
- O=C1OC2CC1(O)CC(O)C2O (stereo not drawn)
  21	x
- CCC(Sc1nc(N)cc(=O)[nH]1)C(=O)Nc1ccccc1C#N (stereo not drawn)
  -4	0.3
- Nc1ncnc2nc(SCCN3CCCCC3)[nH]c12
  x	2.6
- CN1CCN(C(=O)c2ccccc2NC(=O)c2ccc(F)cc2)CC1
  -5	-1.1
- COc1ccc(CN2CCN(Cc3cccc4ccccc34)CC2)cc1
  14	-4.3
- CC1=C(C(=O)N(C)CCC#N)C2(CCCCC2)OC1=O
  3	x
- COc1cccc(NC(=O)c2ccc3c(c2)N(C)CCS3)c1
  4	2.6
- COC(=O)CCC(=O)N1CCc2ccccc21
  7&-12	x

Source: PubChem
